Vif A3G: inhibitors of Vif binding to APOBEC3G peptide, primary screen, biochemical, TR-FRET, GST-Vif 1-94, biotin-A3G peptide, dose response retest (AID 1117319); TR-FRET GST-Vif / biotin-A3G peptide binding; higher % means a stronger effect; test concentration not given here; strong numbers were not always called active; one-dose inhibition, %; IC50 in µM for titrated hits; 260,000 compounds, 0.57% hits;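 active = above the screen mean plus three standard deviations and confirmed in dose response; inconclusive = results disagree or hit not tested in dose response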;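 note: Vif residues 1-94 fused to GST binding biotinylated APOBEC3G peptide 110-148; 0% = full assay without inhibitor and 100% = GST in place of GST-Vif; retest series ran down from 100 µM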
RanGTP-Imp inh: disruptors of Ran-importin-beta complex formation – biochemical, FRET, CFP-Ran, YFP-importin-beta, homogeneous, primary screen; cell-free CFP-Ran/YFP-importin-beta FRET ratio; inhibition, % (test concentration not listed); 300,000 compounds, 1.1% hits; AID 2216;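 active = most replicates above 15%; inconclusive = exactly half above 15%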;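 note: 0% = DMSO wells and 100% = Ran loaded with GDP instead of GTP; wells of about 40 µL received 100 nL stock; the first replicate is given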
Numbers without * were called inactive; u = inconclusive; x = no result given. An excerpt; the hit share may differ from the screen's.

SMILES	Vif A3G	RanGTP-Imp inh
C#CCOCCOCCOCCNc1nc(N2CCN(C(=O)Cn3cc(CCCN=C(N)N)nn3)CC2)nc(N2CCN(C(=O)Cn3cc(CCCN=C(N)N)nn3)CC2)n1	-7%	x
O=C(c1cc2nc(-c3ccc(F)cc3)cc(C(F)(F)F)n2n1)N1CCCC1	-9%	x
COc1ccc(OC)c2c1sc(=NC(=O)CN1C(=O)CCC1=O)n2C	8%	x
CCOc1cc(C(=O)N2CCc3cc(OC)c(OC)cc3C2)ccc1OC(F)F	6%	x
COC(=O)c1ccc(Cl)c(NC(=O)c2ccc(-c3ccccc3)cc2)c1	0%	x
Cc1ccc(/C(C#N)=C\c2cn(C)c3ccccc23)cc1	-2%	x
CCN1CCN(c2cc(C)c3cc(NC(=O)c4ccccc4F)ccc3n2)CC1	u	x
Cc1ccc2c(Cl)cc(Cl)c(OCC(=O)Nc3cc(C)on3)c2n1	-5%	x
C/C(=C\c1ccccc1)CN(C)CCN(C)C	-4%	x
CCn1c(CSc2nnc(-c3cccnc3)n2-c2ccccc2C)nc2cc(C(=O)O)ccc21	9%	x
CC(C)Oc1ccc(-c2nn(-c3ccccc3)cc2/C=c2\sc3ncnn3c2=O)cc1	u	x
COc1cc(/C=c2\sc3nc(-c4ccncc4)nn3c2=O)ccc1OC(C)=O	8%	x
Cc1nnc2n(C3CCCCC3)c(=O)c3c4c(sc3n12)CCC4	u	x
CCn1cc(C(=O)NC2CCC(C)CC2)c(=O)c2cc(S(=O)(=O)N3CCCCC3)ccc21 (configuration not stated)	-7%	x
COc1ccc(O[C@H]2C=C[C@@H](c3ccccc3)O[C@@H]2COC(=O)CC/C(C)=N/O[C@H](C)c2cn([C@@H]3COC[C@H]3O)nn2)cc1	u	1.9
COC(=O)CCCC1=CC2=CC(=O)C(C)(OC(=O)C3CCCC3)C(=O)C2=CO1 (configuration not stated)	u	-7.6
Cc1cc2n(c1)CCn1c(C)ccc1-2	u	2.7
CCOc1ccc(N/C(=C(/C(Cl)=C(Cl)Cl)[N+](=O)[O-])n2cncn2)cc1	11%	-42
O=C(Nc1ccc(Cl)cc1)[C@@H]1[C@@H]2C(=O)N(c3ccc(Cl)cc3Cl)C(=O)[C@@H]2[C@H]2C=CC=NN21	13%	-0.3
CCCNC(=O)OC[C@H]1O[C@H](CCO/N=C/[C@@H](OC)[C@H](C)/C=C/CC(=O)OC)C=C[C@@H]1Oc1ccc(OC)cc1	-2%	-4.3
CCC(=O)O[C@@H]1CC(=O)O[C@H](C)CC=CC=C[C@@H](O)[C@H](C)C[C@H](CC=O)[C@H](O[C@H]2O[C@H](C)[C@@H](O[C@H]3C[C@@](C)(O)[C@@H](OC(=O)CC)[C@H](C)O3)[C@H](N(C)C)[C@H]2O)[C@H]1OC	10%	0.4
C/C=C(\C)C(=O)N1CC2(CC(c3cccc(NC(=O)CC(c4ccccc4)c4ccccc4)c3)=NO2)C[C@H]1C(N)=O (some centres not stated)	21%	4.4
O=Cc1cccc(OC(=O)c2ccc(Cl)cc2Cl)c1	21%	-4.0
O=C(NNC(=O)C1C2CCC(C2)C1C(=O)O)c1ccc(Br)o1 (configuration not stated)	10%	0.7
CCc1ccc2nc3sc(C(=O)N4CCc5ccccc54)c(N)c3cc2c1	11%	-4.2
N#Cc1cc2c(N)c(C(=O)Nc3ccccc3)sc2nc1N	u	6.5
COc1ccccc1C(=O)NCC(=O)NNc1ncnc(N)c1[N+](=O)[O-]	3%	-1.4
C(=N\Nc1nc(-c2ccccn2)nc2ccccc12)/c1ccccc1	-3%	5.8
Nc1c(C(=O)N/N=C/c2ccc([N+](=O)[O-])cc2)sc2nnc(-c3ccccc3)c(-c3ccccc3)c12	-4%	-0.7
C(=C1/CCCC2=C1Nc1ncnn1C2c1ccccc1)/c1ccccc1 (configuration not stated)	1%	u
O=C1CN(CC(=O)N2CCOCC2)c2ccccc2O1	u	-1.1
O=C(CSc1nnc(-c2ccc(Cl)cc2)n1-c1ccc(Cl)cc1)N/N=C/c1ccccc1C(=O)O	-1%	2.3
O=C(N/N=C/c1sc(N2CCOCC2)nc1-c1ccccc1)c1ccccc1F	0%	u
Cc1ccc(OCc2nnc(NC(=O)Cc3cccs3)s2)cc1	u	-1.4
O=[N+]([O-])CC(=Nc1ccc(F)cc1)N/N=C\c1oc(O)c2ccccc12	21%	-3.7
Cc1ccc(C)n1CCN1CCN(CC(=O)Nc2cc(C(F)(F)F)ccc2Cl)CC1	-7%	0.6
Fc1ccc(N2CCN(Cc3c[nH]c4ccccc34)CC2)cc1	-3%	-2.3
Cc1nn(Cc2ccc(Cl)cc2Cl)c(Cl)c1/C=N/NC(=O)CNc1cccc(C(F)(F)F)c1	11%	-1.8
O=C(O/N=C/c1ccc2c(c1)OCO2)c1ccccc1Cl	-1%	-0.1
Cc1ccc(N2CCN(/N=C/C3=C(N4CCOCC4)C(=C\c4ccccc4)/CC3)CC2)cc1	-4%	0.2
Cc1ccc(-n2nc(C)c3c(=O)[nH]c(C(F)(F)F)nc32)cc1	4%	1.8
CCOc1cc(/C=C2\SC(=Nc3ccc(F)cc3)N(c3ccc(F)cc3)C2=O)ccc1OCC(=O)O	22%	-1.8
COc1cc(/C=N/Nc2nc(N3CCCCC3)nc(N3CCCCC3)n2)ccc1OC(=O)c1ccco1	-12%	u
COC(=O)C(=C/C=C/N1CCOCC1)C(=O)OC	u	-0.2
Cc1c(N=c2c(=O)c3ccccc3c2=O)c(=O)n(-c2ccccc2)n1C	24%	0.8
COC(=O)n1c(=S)oc2cc(Cl)ccc21	-4%	0.4
COc1ccc(N/C(=C(/C(Cl)=C(Cl)Cl)[N+](=O)[O-])n2nnc3ccccc32)cc1OC	17%	8.8
COC(=O)CCC(=O)OC1(C)C(=O)C2=CN(CC(C)C)C(c3ccc(OC)cc3)=CC2=C(Br)C1=O (configuration not stated)	u	0.3
CNC(=O)/C(=N\O)c1ccccc1	26%	-1.0
COC(=O)c1ccc2c(c1)N(Cc1nc(-c3cccc(C)c3)oc1C)C(=O)C1CCCN21 (configuration not stated)	2%	3.6

Quoted at random: five compounds from above
SMILES	Vif A3G	RanGTP-Imp inh
COC(=O)CCC(=O)OC1(C)C(=O)C2=CN(CC(C)C)C(c3ccc(OC)cc3)=CC2=C(Br)C1=O (configuration not stated)	u	0.3
O=C(CSc1nnc(-c2ccc(Cl)cc2)n1-c1ccc(Cl)cc1)N/N=C/c1ccccc1C(=O)O	-1%	2.3
O=[N+]([O-])CC(=Nc1ccc(F)cc1)N/N=C\c1oc(O)c2ccccc12	21%	-3.7
Cc1ccc(-n2nc(C)c3c(=O)[nH]c(C(F)(F)F)nc32)cc1	4%	1.8
Fc1ccc(N2CCN(Cc3c[nH]c4ccccc34)CC2)cc1	-3%	-2.3

Next part:
Order of values: Vif A3G, RanGTP-Imp inh
CC(C)OC(=O)c1c2nc3ccccc3nc2n2c1[nH]c(=O)c1ccccc12
  0%, 11
CSc1nc(-c2ccccc2)nc(N)c1C(C)=O
  -7%, 5.4
CCCCCC(=O)Nc1cccc(C2=NOC3(C2)C[C@H](C(N)=O)N(C(=O)CC#N)C3)c1 (some centres not stated)
  u, -0.5
O=C1COc2ccc(N3C(=O)c4ccccc4C3=O)cc2N1
  0%, -0.7
CN(C)CC/C=C1/c2ccccc2COc2ccccc21
  -1%, -2.8
CC(=O)Nc1cn(C(C)=O)c(C)n1
  -7%, 0.3
CCc1cc2c(nc1CC)CCN(CC/C(C)=N/OC[C@H]1O[C@H](c3ccccc3)C=C[C@@H]1Oc1ccc(OC)cc1)C2
  -7%, 7.0
Cc1ccc(C2=NCN(c3ccc(C(=O)O)cc3)C(=S)N2)cc1
  11%, 0.6
Cc1ccc(CNC(=O)c2cn(C3CCCC3)c(=O)c3c2c2ccccc2n3C)o1
  4%, -1.0
Cc1ccc(C)n1-c1ccc2c(c1)COC2=O
  u, 10
Cc1ccc2cc(C)c3nnc(SCC(=O)N4CCCc5ccccc54)n3c2c1C
  -3%, -7.2
N#Cc1nc(-c2ccc(F)cc2)oc1NCCCn1ccnc1
  -12%, -0.3
CSc1ccc(C2c3[nH]c4ccccc4c3CCN2C(=O)c2cc(C)n(C)n2)cc1 (configuration not stated)
  -3%, 0.9
CC(=O)Nc1cccc(NC(=O)c2oc3ccccc3c2C)c1
  -4%, 0.4
Cc1ccc(C)n1C(Cc1ccccc1)C(=O)O (configuration not stated)
  u, -6.5
Cc1cc(=O)[nH]c(N/N=C/c2ccc([N+](=O)[O-])cc2)n1
  -2%, 6.3
COc1ccc(-c2nn(-c3ccccc3)cc2/C=N/NC(=O)c2ccc3c(c2)OCO3)cc1
  -3%, -0.7
CCOc1ccc(C2=NNC(c3cccs3)=Nc3ccc(OCC)cc32)cc1
  31%, 1.8
Cc1c(-c2ccncc2)oc2ccc(Br)cc2c1=O
  15%, -1.9
CCN(CC)CCCN1C(=O)c2oc3ccccc3c(=O)c2C1c1cccs1 (configuration not stated)
  19%, -0.8
COc1cccc(N2CCCn3c2nc2c3c(=O)n(CCN3CCOCC3)c(=O)n2C)c1
  -3%, 0.7
Cc1ccccc1Nc1nc(-c2sc(NC(=O)c3ccccc3)nc2C)cs1
  27%, -0.3
Cc1ccc(-c2csc(=S)n2CC(=O)OCC(=O)NCc2ccc(F)cc2)cc1
  -4%, -1.5
Oc1c(Cl)cc(Cl)cc1Sc1cc(Cl)cc(Cl)c1O
  19%, -1.4
Cc1cccc(-n2ncc3c(N4CCc5ccccc54)ncnc32)c1
  -2%, 0.9
CCCCc1ccc(/C=C2\C(=O)c3ccccc3C(O)=C2C(=O)OCC)cc1
  30%, -11
O=C(Nc1ccc(C2=NCCN2)cc1)c1ccc(Cl)c(C(=O)Nc2ccc(C3=NCCN3)cc2)c1
  -18%, 0.9
O=C(O)Cc1ccc(NC(=O)C2CC=CCC2C(=O)O)cc1 (configuration not stated)
  11%, -3.4
COc1cccc2[nH]c3c(N4CCN(Cc5ccc6c(c5)OCO6)CC4)ncnc3c12
  2%, 0.9
Cc1ccc(C(=O)NC(C)c2nc3ccccc3n2CC(=O)Nc2c(C)cc(C)cc2C)cc1 (configuration not stated)
  -4%, -0.9

Sorted by molar mass (low to high): some entries from above.
Order of values: Vif A3G, RanGTP-Imp inh
Cc1cc(=O)[nH]c(N/N=C/c2ccc([N+](=O)[O-])cc2)n1
  -2%, 6.3
Oc1c(Cl)cc(Cl)cc1Sc1cc(Cl)cc(Cl)c1O
  19%, -1.4
CCN(CC)CCCN1C(=O)c2oc3ccccc3c(=O)c2C1c1cccs1 (configuration not stated)
  19%, -0.8

Later entries:
Order of values: Vif A3G, RanGTP-Imp inh
Cc1occc1C(=O)N=Nc1c(O)[nH]c2ccc(Br)cc12
  5%, -3.3
Clc1ccccc1CSc1nncn1-c1cccnc1
  27%, -0.4
CN(C)c1ccc(/C=C/C(O)=C2/C(=O)N(C)C3(C)CC2c2ccccc2O3)cc1 (configuration not stated)
  9%, -2.2
Cc1ccccc1OCCNc1cc(N2CCNCC2)ccc1[N+](=O)[O-]
  5%, -3.0
COc1cc(/C=N/n2cnc3c(sc4nc(C)cc(C)c43)c2=O)ccc1O
  -9%, 26
CCN(CC)S(=O)(=O)c1ccc(C(=O)N2CCN(CCN3C(=O)c4cccc5cccc(c45)C3=O)CC2)cc1
  -4%, -2.2
CCS(=O)(=O)NCc1ccc2[nH]c3c(c2c1)CCCC3
  11%, u
COC(=O)c1ccccc1OCCCOc1ccc(C)cc1OC
  -3%, -2.4
Cc1nc2nc(-c3ccc(Cl)cc3)nn2c(C)c1Cl
  -14%, 1.0
[O-][n+]1c2c(nc3c1-c1ccccc1C3O)CCCC2 (configuration not stated)
  -2%, u
COc1ccc(C2=CC(=O)C=CC2=O)cc1
  u, 0.1
Cc1ccc(OCC(=O)n2cnnc2N)c(C)c1
  -5%, 1.6
CN1CCN(CC(=O)N2c3ccccc3C(=O)Nc3cccnc32)CC1
  32%, u
CC/C(=N\NC(C)=O)c1ccc(OC(F)F)cc1
  9%, 1.2
Cc1c(C(=O)N2CCN(c3ccccc3)CC2)sc2ncnc(N3CCC(C)CC3)c12
  -1%, u
Cc1nc(NC(=O)c2ccccc2)sc1-c1csc(Nc2ccc(Cl)cc2Cl)n1
  22%, -1.1
C(=N\Nc1nc(N2CCOCC2)nc(N2CCOCC2)n1)/c1ccco1
  16%, 0.9
CC(=O)c1ccc(NC(=S)N2C(C)CCCC2C)cc1 (configuration not stated)
  -7%, -2.0
Cc1sc2ncnc(Sc3nc4ccccc4s3)c2c1C
  -16%, 1.3
O=C1CCCCC1C(O)c1ccc(Cl)cc1 (configuration not stated)
  1%, 3.0
CCN(CC)c1ccc2cc(/C(N)=N/NC(=O)c3cccs3)c(=O)oc2c1
  -8%, 159*
Cc1cnc(SCCc2ccncc2)nc1C
  24%, -2.4
C/C(=N\Nc1ccc(F)cc1F)c1ccc(F)cc1
  -8%, -4.6
Cc1nc(NC(=O)c2ccccc2)sc1-c1csc(Nc2ccc(Cl)cc2)n1
  1%, 3.1
COc1cc(/C=C(\C#N)C(=O)Nc2cccc3ncccc23)ccc1O
  28%, 63*
Cc1cc(C)n(C(=O)c2ccncc2)n1
  -6%, -0.1
Cc1ccc(C)c(CN2C(=O)C3CCCN3c3ccc(S(=O)(=O)N4CCOCC4)cc32)c1 (configuration not stated)
  14%, 1.6
COc1cc2[nH]c(C(=O)NN)c(N)c2cc1OC
  u, -4.0
O=C(CN1N=C(c2ccc(Cl)cc2)CCC1=O)NCc1cccs1
  -8%, 4.8
CN(C)C=Nc1ccccc1C1C=NNC1=O (configuration not stated)
  9%, 0.7
Cc1cc(C)nc(/N=C(/NC(=O)Nc2ccc(Cl)c(Cl)c2)Nc2ccccc2)n1
  -12%, 3.8
O=S(=O)(/N=C/c1c(O)ccc2ccccc12)c1cccs1
  8%, 2.7
